hNpr1 antagonist: human Npr1 receptor antagonism; AID 1347048; hit rate 1.6% among 76,000; P16066; HEK293 hNpr1 GloSensor cGMP, ANP-stimulated luminescence; Potency, µM (series often up to 46.3 µM), for inactives: top-dose activity change, negative = inhibition, actives largely listed as inhibitors; active = well fitted inhibition curve with a large enough effect; inconclusive = small, poorly fitted or top-dose-only effect; inactive = no such curve, though single readings can be large or run the other way;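 further: nearly all actives have a fitted effect of over 60% in size; nearly all hits also lower the signal before the agonist is added; a reference antagonist and vehicle were the controls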
Target sequence (P16066 whole entry, looked up): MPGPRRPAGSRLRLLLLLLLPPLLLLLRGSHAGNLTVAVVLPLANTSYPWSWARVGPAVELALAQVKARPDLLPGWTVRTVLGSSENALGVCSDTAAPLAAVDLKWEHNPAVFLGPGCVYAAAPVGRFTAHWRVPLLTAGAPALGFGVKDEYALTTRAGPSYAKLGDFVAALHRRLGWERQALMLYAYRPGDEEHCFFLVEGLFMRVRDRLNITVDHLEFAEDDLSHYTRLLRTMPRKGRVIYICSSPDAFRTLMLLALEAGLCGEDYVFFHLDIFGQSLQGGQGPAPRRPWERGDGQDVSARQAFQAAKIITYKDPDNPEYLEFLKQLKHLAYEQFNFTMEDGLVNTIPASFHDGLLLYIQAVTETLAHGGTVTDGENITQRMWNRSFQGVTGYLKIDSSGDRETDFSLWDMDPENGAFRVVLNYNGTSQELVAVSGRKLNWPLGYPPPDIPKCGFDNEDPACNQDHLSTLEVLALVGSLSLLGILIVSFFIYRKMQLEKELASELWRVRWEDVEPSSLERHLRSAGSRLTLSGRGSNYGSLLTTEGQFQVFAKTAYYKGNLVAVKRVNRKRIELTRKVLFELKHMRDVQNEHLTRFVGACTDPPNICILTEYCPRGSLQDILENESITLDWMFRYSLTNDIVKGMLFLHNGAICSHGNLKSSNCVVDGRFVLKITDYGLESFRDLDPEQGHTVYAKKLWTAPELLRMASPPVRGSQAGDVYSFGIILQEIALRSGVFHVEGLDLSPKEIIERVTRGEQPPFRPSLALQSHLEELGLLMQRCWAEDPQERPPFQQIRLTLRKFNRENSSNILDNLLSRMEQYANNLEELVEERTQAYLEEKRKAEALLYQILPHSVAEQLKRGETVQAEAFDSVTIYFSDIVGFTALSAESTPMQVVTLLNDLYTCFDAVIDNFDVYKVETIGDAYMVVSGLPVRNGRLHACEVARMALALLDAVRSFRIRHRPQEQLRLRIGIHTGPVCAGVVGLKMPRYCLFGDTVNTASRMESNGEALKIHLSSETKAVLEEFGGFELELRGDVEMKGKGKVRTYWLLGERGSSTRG
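Compound pre-incubated 30 min at room temperature on GloSensor-loaded HEK293 cells stably carrying hNpr1 and the pGS-40F cGMP biosensor. Stimulation uses hNppA at 0.1 nM final; luminescence is taken at baseline and 20 min post-agonist.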
Active calls of the source: *; ? = inconclusive; [ ] = another dose, or the depositor's remark. On the % scale 0 is the no-effect control and ±100 the full control effect; potency means the concentration at half of the fitted maximal effect. This is a subset; count on the stated rates, not on these rows.

SMILES | hNpr1 antagonist
COc1ccc(N2C(=O)CSC23CCN(C(=O)Nc2ccc(F)cc2F)CC3)cc1 | -2%
CCCC1(C2CCN(C(=O)CCCn3cncn3)CC2)NC(=O)NC1=O (configuration not stated) | 2%
CC(C)N1C[C@H](C(=O)NCc2ccc(F)cc2F)[C@H](C(=O)O)C1 | 1%
O=C1OC[C@@H]2CCN(Cc3ccccc3F)Cc3ccc(F)cc3N12 | 3%[70.6 µM]
Cc1ccc(NC(=O)N2C[C@@H](F)C[C@H]2C(=O)N2CCc3ccccc3C2)cc1 | -3%
CC(C)NC(=O)NC[C@H]1O[C@@H](CC(=O)N2CCN(c3ccccc3)CC2)[C@H](O)[C@@H]1O | -1%[70.6 µM]
Cn1cnc2ccc(-c3ccncc3)nc2c1=O | 3%[70.6 µM]
O=C(Nc1ccc([C@@H](O)[C@H]2COCC(=O)N2Cc2ccccc2F)cc1)C1CCCCC1 | -20%
COc1cccc(CCC(=O)N2CCC(Cc3nc(C4CCOCC4)no3)CC2)c1 | -17%
O=C(N[C@@H](Cn1cc(F)c(=O)[nH]c1=O)C(=O)O)c1cccs1 | 0%[70.6 µM]
O=C(NCCc1ccncc1)C1CN(C(=O)c2cc(F)cc(F)c2)CC12CCOCC2 (configuration not stated) | 3%
COC1CN(c2cccc(F)c2)C12CCN(C(=O)c1cnc(C)cn1)CC2 (configuration not stated) | 6%
CC(O)c1cc2n(n1)CCCN(CCn1cc[nH]c1=O)C2 (configuration not stated) | -3%
COc1ccccc1-c1[nH]nc2ncc(C(=O)NCCN3CCOCC3)nc12 | -1%[70.6 µM]
CCn1cc(CN2CCN(C(=O)c3ccc(OC)nc3)CC2)ccc1=O | 7%
O=C(COc1ccccc1)N1CCC2(CC1)SCC(=O)N2c1ccc(Cl)cc1 | -2%
CCc1noc(CN2CCC3(CCCN(C4CCOCC4)C3=O)C2)n1 (configuration not stated) | 7%
Cn1nccc1C(=O)N1CCC2(CC1)OC(=O)N(Cc1ccccc1C#N)C2(C)c1ccccc1 (configuration not stated) | 1%
COc1ccc(CN2CCc3nc(N4CCOCC4)[nH]c(=O)c3CC2)c(OC)c1OC | 3%
CCN1CCCCC1C(=O)N1CCC2(CC1)Nc1ccccc1NC2=O (configuration not stated) | -3%
Cc1noc(-c2ccc(OC3CN(C(=O)c4cccn4C)C3)cc2)n1 | -5%
Cn1cccc1CNC(=O)C1CC(=O)N(c2n[nH]c3ccccc23)C1 (configuration not stated) | 0%
COc1cc(CN2CCN(c3ncccc3C#N)CC2CCO)cc(OC)c1 (configuration not stated) | 1%
O=C(NCCc1ccccc1)NC1CCc2nn(CC3CC3)c(=O)n2CC1 (configuration not stated) | 0%
Cn1ncc(N2CCCC(CC(=O)Nc3cccc(F)c3)C2)cc1=O (configuration not stated) | 2%

Remaining list, next part
SMILES | hNpr1 antagonist
O=C(CC1CCCCC1)NC1CCN(c2cnn(Cc3ccccc3)c(=O)c2)CC1 | 1%
Cc1cccc(C(C(=O)NCc2nn(C)c3ccc(C)cc23)N(C)C)c1 (configuration not stated) | -9%
OCC1CN(Cc2cscn2)CCC12CCN(Cc1ccccc1)CC2 (configuration not stated) | 0%
Cc1nn(C(C)C)c(C)c1CNC(=O)c1cn(CCC2CCCCN2)nn1 (configuration not stated) | 1%
CC(=O)Nc1ccc(CNC2(Cc3cc(CC(C)C)on3)COC2)cc1 | -6%[70.6 µM]
CC(C)N1CCN(C(=O)[C@@]23CCCC[C@H]2N(C)C(=O)CC3)CC1 | 4%
CC(C)(C)c1ccc(-c2cc(C[C@H]3CNCC[C@H]3CC(=O)Nc3ccccc3)no2)cc1 | -10%[70.6 µM]
CN(C)c1ncnc2sc3c(c12)CCN(Cc1ccccc1)C3 | -2%
CCn1c2c(c(=O)n1Cc1ccccc1)CCN(Cc1cncc(OC)c1)C2 | 1%[70.6 µM]
COc1ccc(-c2cc(N3CCCN(C(=O)Cc4ccccc4Cl)CC3)n[nH]2)cc1 | -5%
O=C(Nc1ccc(C2(C(=O)N3CCN(c4ccccn4)CC3)CCC2)cc1)C1CC1 | -2%
COc1ccccc1N1CCN(C(=O)CC2NC(=O)NC2=O)CC1=O (configuration not stated) | 1%
Cc1ccccc1-c1[nH]nc2ncc(-c3cccc(F)c3)nc12 | -23%[70.6 µM]
CCCCN1CCN(c2nc(-c3ccccc3)nc3c2CCNC3)CC1=O | -1%
CC1CCc2nn3ccn(CC(=O)Nc4ccc(C(F)(F)F)cc4)c(=O)c3c2C1 (configuration not stated) | -6%
Cc1sc2ccn(C)c(=O)c2c1C(=O)NC1CCN(Cc2ccccc2)CC1 | 0%
COCCOC1CN(C2CCN(C(=O)COc3ccc(F)cc3)CC2)C12CCCCC2 (configuration not stated) | 0%
COc1ccc(Nc2cnc3ccc(-c4ccc(F)cc4)nn23)cc1OC | -3%[70.6 µM]
NC(=O)[C@H]1C[C@@H](O)[C@H](O)[C@H]2[C@@H]1SC(=Nc1ccc(Cl)cc1)N2Cc1ccc(F)cc1 | -4%
O=C(NCc1ccco1)C1CN(S(=O)(=O)c2cccs2)CC12CCCCC2 (configuration not stated) | -2%
COc1ccccc1CNC[C@H]1Cn2c(-c3cccc(Cl)c3)cnc2CO1 | 0%[70.6 µM]
Cc1ccc(CC(=O)N2CCN(C(=O)c3nnn4c3COC(c3ccc(F)cc3)C4)CC2)cc1 (configuration not stated) | -11%
O=C(Cn1nc2c(cc1=O)CCCCC2)Nc1cccnc1 | -17%
Cc1cccc(C)c1CN1CC2(COCC1=O)CN(c1ccc(C(F)(F)F)cn1)C2 | -17%[70.6 µM]
COc1cccc(-c2nnnn2[C@H]2CO[C@H]3[C@@H]2OC[C@@H]3NC(=O)c2ccccc2C(=O)O)c1 | 4%

(continued)
SMILES | hNpr1 antagonist
COC(=O)[C@@H]1Cc2ncn(Cc3ccc(Cl)cc3)c2CN1C(=O)c1ccccc1 | 1%[70.6 µM]
O=C(Cc1ccc(Br)cc1)NCc1nnc2ccc(-c3ccc(F)cc3)nn12 | -3%
C[S+](=O)([O-])N1CCC2(CC1)C(=O)NN=C2c1ccncc1 | 0%[70.6 µM]
O=C(NC1CCCCC1)C1CCCN(c2cnc3nccnc3c2)C1 (configuration not stated) | 3%
COc1ccc(C(=O)N2CCC3(CC2)CC(N(Cc2ccccc2)C2CC2)CCO3)cc1 (configuration not stated) | 3%
FC(F)(F)c1ccc(N2C3CCC2CN(Cc2ccc(-c4ccsc4)cc2)C3)cc1 | 25%
Cc1ccccc1-c1cc(O)c2c(c1)CNCCO2 | 0%
Cc1nccnc1CN1CCC2(CC1)CCN(Cc1ncc[nH]1)CC2CO (configuration not stated) | -6%
COCc1nc(CCNC(=O)CCCc2nc3ccccc3[nH]2)no1 | 0%
O=C(O)CCC(=O)N[C@H]1CCN2C(=O)c3cc(-c4cccc(C(F)(F)F)c4)ccc3NC(=O)[C@H]12 | 6%
COCCOC1CCOC2(CCN(C(=O)CCCc3ccccc3)CC2)C1 (configuration not stated) | -11%
Clc1ccc(-c2noc([C@@H]3Cc4nc[nH]c4CN3CC3CCCCC3)n2)cc1 | -15%[70.6 µM]
O=C(NC[C@H]1O[C@@H]2C[C@@H](CC(=O)N3CCC(F)(F)C3)O[C@@H]2[C@@H]1O)NC1CCC1 | 8%[70.6 µM]
CN(C)C(=O)NCC(=O)N1C[C@@H](C(=O)O)[C@H](c2ccc3c(c2)OCO3)C1 | 5%
Cc1cnc(C(=O)N2CCC(C3CCN(S(C)(=O)=O)CC3)C2)cn1 (configuration not stated) | 4%
COCCNC(=O)N1CCC(c2cc(-c3ccc(F)cc3)n[nH]2)CC1 | 1%
Clc1cccc(-c2cnc3n2C[C@H](CNCc2ccccc2)OC3)c1 | -4%[70.6 µM]
CC1CCN(C(=O)CN2C(=O)NC3(CCCCC3)C2=O)CC1 | 3%
CN(C)[S+](=O)([O-])c1ccc2c(c1)OCCN(Cc1ccc(Cl)cn1)C2 | -11%[70.6 µM]
CN(C)C[C@@H]1CN(S(C)(=O)=O)C[C@H]1NC(=O)C1(C)CCOCC1 | 1%
CN1[C@@H](CCC(=O)NCc2ccco2)CNC(=O)[C@H]2NCC[C@H]21 | 1%[70.6 µM]
O=C(Cc1ccsc1)N1CCC(c2noc(C3CC3)n2)C1 (configuration not stated) | -11%
CC1=C[C@@H](CNC(=O)c2ccccc2)[C@H](C(C)C)C[C@H]1Cc1nc2ccc(C)cc2[nH]1 | -27%[70.6 µM]
O=C1COc2ccc(OCc3cncs3)nc2CN1CCOc1ccccc1 | 32µM*
Fc1ccc(-c2ccc3ncc(Nc4ccc5c(c4)OCO5)n3n2)cc1 | -11%[70.6 µM]

Next section; the last five above are carried over.
SMILES | hNpr1 antagonist
CN1[C@@H](CCC(=O)NCc2ccco2)CNC(=O)[C@H]2NCC[C@H]21 | 1%[70.6 µM]
O=C(Cc1ccsc1)N1CCC(c2noc(C3CC3)n2)C1 (configuration not stated) | -11%
CC1=C[C@@H](CNC(=O)c2ccccc2)[C@H](C(C)C)C[C@H]1Cc1nc2ccc(C)cc2[nH]1 | -27%[70.6 µM]
O=C1COc2ccc(OCc3cncs3)nc2CN1CCOc1ccccc1 | 32µM*
Fc1ccc(-c2ccc3ncc(Nc4ccc5c(c4)OCO5)n3n2)cc1 | -11%[70.6 µM]
Cc1cc2occ(CC(=O)N3CC[C@](C)(O)[C@@H](O)C3)c2cc1Cl | -5%
NC1CC(c2cc(N3CCCN(C(=O)c4ccoc4)CC3)ncn2)C1 (configuration not stated) | 4%
CN1C[C@@H](NS(=O)(=O)c2ccc(F)cc2)C[C@H]1c1nc(-c2cccnc2)no1 | 5%[70.6 µM]
CCO[C@H]1CN(C(=O)Cc2ccc3nc(C)[nH]c3c2)C[C@@H]1O | 4%
Cn1ccc2c(C(=O)NCCc3cnc[nH]3)nc(-c3cnn(Cc4ccccc4)c3)cc21 | -6%[70.6 µM]
Cc1c(Cl)cccc1NC(=O)Cn1ccn2nc3c(c2c1=O)CCCCC3 | 3%
COCCNC(=O)N1[C@@H]2CC[C@H]1CC(NC(=O)c1ccc(F)cc1)C2 (some centres not stated) | 3%
CC(=O)Nc1ccc(C2(C(=O)NCc3ccc(N(C)C)cc3)CCCCC2)cc1 | 7%
O=C(Cc1cccc(F)c1)N1CC2CC(C1)[C@H]1CCCC(=O)N1C2 (some centres not stated) | 7%
COc1ccc(-c2cc(C[C@@H]3CC[C@H](O)[C@@H](CNC(=O)Nc4ccccc4)O3)no2)cc1 | -4%
Cc1nn2c(c1-c1ccccc1OCc1ccccc1)N(C(=O)CN1CCOCC1)CCC2 | -19%
Cc1nn(C(=O)CCC(=O)N2CCC(C)(c3noc(C4CC4)n3)CC2)c2ccccc12 | 4%
Cc1nc(-c2cn(C3CCCN(C(=O)c4ccc(C(C)(C)C)cc4)C3)nn2)no1 (configuration not stated) | -3%
Cc1nn2c(c1-c1ccccc1Oc1ccccc1)N(CC1CC1)CCC2 | ?
Fc1ccc2oc([C@H]3CCN(Cc4ccc(F)c(F)c4)C3)nc2c1 | 2%[70.6 µM]
Cc1cccc(S(=O)(=O)N2C[C@@H](F)C[C@H]2C(=O)N2CCc3ccccc3C2)c1 | -1%
CC(C)CNc1ccc2c(n1)C(C)(C(=O)NC(C)C)CN(Cc1ccccc1)C2 (configuration not stated) | ?
O=C(NC1CCCC1)N1CCC(OC2CCN(Cc3ccccc3)CC2)CC1 | -1%
CCS(=O)(=O)N1CCCN(S(=O)(=O)c2ccccc2)CCC(=O)NCC1 | 3%
COc1cccc(NC(=O)c2cnc3c(c2)N(Cc2ccccc2)CCC3)c1 | -17%[70.6 µM]
CCc1cc(=O)n(CC(=O)Nc2ccc3c(c2)OCO3)c(-c2cccc(F)c2)n1 | -26%
Cc1cnc(C2CCOCC2)n1C1CCCN(C(=O)c2cn(C)cn2)C1 (configuration not stated) | 5%
COc1ccc(OCC2(C)COc3ccc(C(=O)NCC(C)C)cc3N2)cc1 (configuration not stated) | -22%[70.6 µM]
Cc1noc(C)c1-c1cc2cc(C(C)C)oc2c(-c2ccnn2C)n1 | -7%[70.6 µM]
COc1cccc(CN2CCCC(c3nc(-c4cccnc4)no3)CCNC(=O)CC2)c1OC (configuration not stated) | 6%
COc1cccc(CN2CCc3nc(C(C)C)nc(-c4ccc(O)cc4)c3CC2)c1 | -1%
O=C(NC1CCCN(c2cc(-c3ccc(Cl)cc3)[nH]n2)C1)c1ccncc1 (configuration not stated) | -26%
O=C([C@@H]1C[C@H](F)CN1S(=O)(=O)c1ccc(F)c(F)c1)N1CCCCC1 | -1%

Reprinted at random: five records from the list.
SMILES | hNpr1 antagonist
CC(=O)Nc1ccc(C2(C(=O)NCc3ccc(N(C)C)cc3)CCCCC2)cc1 | 7%
Cn1ccc2c(C(=O)NCCc3cnc[nH]3)nc(-c3cnn(Cc4ccccc4)c3)cc21 | -6%[70.6 µM]
Cc1nc(-c2cn(C3CCCN(C(=O)c4ccc(C(C)(C)C)cc4)C3)nn2)no1 (configuration not stated) | -3%
Cc1nn(C(=O)CCC(=O)N2CCC(C)(c3noc(C4CC4)n3)CC2)c2ccccc12 | 4%
Cc1cc2occ(CC(=O)N3CC[C@](C)(O)[C@@H](O)C3)c2cc1Cl | -5%

Screens: PubChem BioAssay, National Center for Advancing Translational Sciences (NCATS)
